Bioassay records (PubChem BioAssay)
Mtb H37Rv: M. tuberculosis H37Rv growth inhibitors, H37Rv strain (AID 1626). one-dose inhibition, % at 10 µM; IC50 in µM for titrated hits. hit rate 0.95% among 220,000. M. tuberculosis H37Rv growth inhibition; higher % means a stronger effect;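 active means confirmed in a dose series; inconclusive means inhibition above 80% but not taken into the dose series; inactive means below 80% or under 30% at every dose of the series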;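 further: bacteria incubated seven days before Alamar blue readout; 0% = bacteria only wells and 100% = bacteria with antibiotic wells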
Mtb bLac sens: beta-lactam sensitization of Mtb H37Rv | M. tuberculosis H37Rv growth with meropenem, percent inhibition; hits of this screen are not shown here | inhibition, % at 25 µM | hit rate 0.27% among 330,000;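 active means about 74% or more and at least 40 points above the plate without the antibiotic, then above 30% in a dose series; inconclusive means first-round hits that could not be retested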;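 further: growth measured after seven days incubation then overnight dye step; 0% = bacteria only wells and 100% = bacteria with antibiotic; twin plates without the antibiotic show which effects depend on it; some results filed as inactive read as strong as hits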
Arbovirus anti: blocks arbovirus infection | arbovirus infection cell-based antiviral screen | inhibition, % at 10 µM | hit rate 0.37% among 200,000;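 active means inhibition from about 30%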;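 further: bluetongue infection of BSR cells; cell survival read as ATP light after 72 h; 0% = infected wells without compound and 100% = uninfected wells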
YopH PTP inh: blocks Yersinia enterocolitica YopH tyrosine phosphatase; fluorescence Ex485/Em525; AID 898; inhibition, %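 (about 10 µM by stock and volumes)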; hit rate 0.16% among 140,000;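 active means inhibition of 50% or more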;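 further: controls were vehicle for no effect and minimum signal wells for full effect; inactives centre near -20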
RecA splice inh: blocks M. tuberculosis RecA intein splicing. P9WHJ3. cell-free RecA intein splicing, fluorescence. inhibition, %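 (about 9 µM by stock and volumes)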. hit rate 0.75% among 290,000. AID 2221; in the data active means inhibition above about 30%; inconclusive means no clear call, values can overlap the other calls;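 further: 0% = vehicle wells and 100% = reference inhibitor control wells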
Target sequence (P9WHJ3 whole entry, looked up, canonical isoform): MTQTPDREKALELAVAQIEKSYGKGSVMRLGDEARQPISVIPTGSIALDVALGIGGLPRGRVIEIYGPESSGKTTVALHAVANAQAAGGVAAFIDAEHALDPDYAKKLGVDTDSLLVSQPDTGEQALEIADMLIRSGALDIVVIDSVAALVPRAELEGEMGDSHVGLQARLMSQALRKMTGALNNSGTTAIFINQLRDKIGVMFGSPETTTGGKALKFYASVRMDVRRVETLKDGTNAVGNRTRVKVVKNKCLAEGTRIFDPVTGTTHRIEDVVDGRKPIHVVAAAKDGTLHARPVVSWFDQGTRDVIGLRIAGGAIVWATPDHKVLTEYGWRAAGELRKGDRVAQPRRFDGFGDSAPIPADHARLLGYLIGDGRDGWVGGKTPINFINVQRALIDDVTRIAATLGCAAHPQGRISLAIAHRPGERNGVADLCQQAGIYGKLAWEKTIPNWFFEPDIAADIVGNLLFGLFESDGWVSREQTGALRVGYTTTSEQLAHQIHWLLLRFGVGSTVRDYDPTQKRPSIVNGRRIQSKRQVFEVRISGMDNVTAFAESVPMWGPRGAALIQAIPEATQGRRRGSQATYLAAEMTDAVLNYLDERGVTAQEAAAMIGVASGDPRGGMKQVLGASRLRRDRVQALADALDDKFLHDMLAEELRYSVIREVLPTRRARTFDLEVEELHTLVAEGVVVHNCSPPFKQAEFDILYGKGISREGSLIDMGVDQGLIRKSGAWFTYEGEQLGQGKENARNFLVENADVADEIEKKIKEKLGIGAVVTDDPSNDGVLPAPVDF
Arbovirus anti repeat: further read-out of Arbovirus anti, marked with its call; inhibition, %; measured here: 10K subset replicate screen; many hits read low in the repeat;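 first of two repeat runs on a subset; 0% = infected and 100% = uninfected wells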
The depositor's hits bear a star; ? = inconclusive; nt = not tested or not shown; & = joins results of further samples.

SMILES	Mtb H37Rv	Mtb bLac sens	Arbovirus anti	YopH PTP inh	RecA splice inh	others
Cc1cccc(N2CCN(Cc3nc(-c4cccc(Oc5ccccc5)c4)oc3C)CC2)n1	24%	48	-15	nt	7.6
Cc1ccc(NC(=S)NC2CCCC2)cc1C	8%	0	8	-30	-2.9
CC1CCN(CCOCCOc2ccc(Cl)cc2Br)CC1	?	3	2	-27	nt
O=C(N/N=C/c1ccc2ncccc2c1)c1cc(-c2cccs2)nc2ccccc12	12%	61	nt	nt	-18
COc1ccc(/C=N/NC(=O)C(=O)N2CCN(c3ccccc3OC)CC2)cc1	0%	nt	0	2	-2.5
CCOC(=O)c1c(NC(=O)C(C)Sc2c[nH]c3ccccc23)sc2c1CCC2 (stereo not given)	13%	1	-17	-18	2.6
Cc1cc(C)cc(NC(=O)C(Nc2ccccc2)c2ccccc2)c1 (stereo not given)	6%	6	4	-36	7.5
Cc1ccc(NC(=S)NCC23C=CC(O2)C2C(=O)N(c4ccc(C)cc4)C(=O)C23)cc1 (stereo not given)	1%	-4	8	-3	-0.4
O=C(O)C1C2C=CC(C2)C1C(=O)NCCCc1ccccc1 (stereo not given)	-4%	-5	2	-17	1.3
O=S(=O)(c1ccc2ccccc2c1)N1CCCCC1	-4%	-4	-5	-39	3.7

Structures shown so far that contain four or more nitrogen atoms, in the order listed:
SMILES	Mtb H37Rv	Mtb bLac sens	Arbovirus anti	YopH PTP inh	RecA splice inh	others
Cc1cccc(N2CCN(Cc3nc(-c4cccc(Oc5ccccc5)c4)oc3C)CC2)n1	24%	48	-15	nt	7.6
O=C(N/N=C/c1ccc2ncccc2c1)c1cc(-c2cccs2)nc2ccccc12	12%	61	nt	nt	-18
COc1ccc(/C=N/NC(=O)C(=O)N2CCN(c3ccccc3OC)CC2)cc1	0%	nt	0	2	-2.5

The results go on:
SMILES	Mtb H37Rv	Mtb bLac sens	Arbovirus anti	YopH PTP inh	RecA splice inh	others
CS(=O)(=O)N1N=C(c2ccccc2)CC1c1ccc2nccnc2c1 (stereo not given)	4%	-2	-3	-5	3.5
CCC(CC)C(=O)N1CCN(c2cccc(C)c2C)CC1	6%	-2	9	-16	0.8
CCOC(=O)c1csc(NC(=O)C2=COCCO2)n1	nt	-9	nt	nt	-0.1
COc1ccc(CN=C(Nc2ccccc2)SC2CC(=O)NC2=O)cc1 (stereo not given)	-1%	-1	-3	nt	-1.0
O=C(Nc1ccccc1Cl)c1cc[n+]([O-])cc1	nt	-6	nt	nt	-1.1
CCC(c1nnnn1CCc1ccccc1)N(Cc1ccco1)Cc1cc2c(C)ccc(C)c2[nH]c1=O (stereo not given)	6%	-11	-9	-20	11
COCCN1C(=O)N[C@@H](CCc2ccccc2)[C@H](C(C)=O)[C@H]1C	-8%	-6	nt	nt	2.4
CC1CCN(CCCNC(=O)CN2CCN(Cc3ccc(Cl)cc3)C2=O)CC1	nt	-2	-7	-27	0.3	Arbovirus anti repeat=-1
CC(C)N(C(=O)c1sc2cc([N+](=O)[O-])ccc2c1Cl)C(C)C	-6%	-2	-1	-28	-1.5
Cc1cc(CNC(=O)Nc2ccc3c(c2)OCO3)nn1C	4%	-31	1	-20	-2.4
Cn1c(SCC(=O)OC2CCCCC2)nnc1-c1ccc(S(=O)(=O)N2CCCC2)cc1	-5%	1	-2	-29	1.8
CCS(=O)(=O)c1ccc(-c2csc(-c3ccc(Cl)cc3)n2)c(Cl)c1Cl	-5%	-3	2	-18	0.9
COc1cccc(NC(=O)CN2C(=O)NC(C)(c3ccc(C)cc3)C2=O)c1 (stereo not given)	nt	-6	nt	nt	4.0
COc1ccccc1N1CCN(S(=O)(=O)c2ccc(-n3cnnn3)cc2)CC1	nt	0	nt	nt	0.0
Cc1ccc(C(=O)OC(C(=O)Nc2ccc(Cl)cc2C(F)(F)F)c2ccccc2)cc1 (stereo not given)	8%	50	-9	-20	0.5
CCCCN(CCCC)CCNC(=O)CN1C(=O)CSc2ccc(S(=O)(=O)N3CCOCC3)cc21	nt	-1	nt	nt	0.6
CCCCNC(=O)C1(c2ccc(OC)cc2)CCOCC1	2%	-6	1	-8	-1.6
O=C(C1=C[C@@H](c2ccccc2)C[C@@H](OCCCCO)O1)N1CCOCC1	-12%	0	-2	nt	-1.2
Clc1cccc(Cl)c1OCCOCCNCc1ccccc1	nt	5	nt	nt	1.5
CCN1CCN(C(=O)c2cc3cc(F)ccc3[nH]2)CC1	nt	2	nt	nt	2.2
O/N=C\c1ccc(-c2ccccc2)o1	49%	?	-1	-23	3.8
COc1ccc(C(=O)NCCC2=CCCCC2)cc1[N+](=O)[O-]	-5%	-4	-13	nt	-1.0
O=C(Nc1ccc(S(=O)(=O)Nc2nccs2)cc1)c1cc(-c2ccccn2)nc2ccccc12	1%	45	5	nt	5.5
COc1ccccc1-c1ccc2nnc(SC)n2n1	nt	-4	nt	nt	-1.6
NC1=NC(c2ccccc2)N=C(Nc2ccccc2)N1 (stereo not given)	-14%	-3	nt	nt	nt
CCN(Cc1cc2ccccc2[nH]c1=O)S(=O)(=O)c1ccccc1	-9%	3	-3	-22	-0.3
Cc1cc(OC(C)C(=O)NCC2CCC(C(=O)O)CC2)c2c3c(c(=O)oc2c1)CCC3 (stereo not given)	nt	-6	nt	nt	-2.0
O=C(Nc1ccccc1[N+](=O)[O-])C1=C(O)CCn2c1nc1ccccc12	-5%	7	-7	-18	2.9
Cc1sc2nc(CSc3ccc([N+](=O)[O-])c(C(F)(F)F)c3)[nH]c(=O)c2c1C	3%	-2	-13	-7	-1.4
CCOc1ccc(NC(=O)CCNS(=O)(=O)c2cccc3nonc23)cc1	nt	32	nt	nt	-0.8
O=C(Nc1ccccc1)c1cccnc1N1CCOCC1	-2%	9	18	-15	-5.1
COc1cccc(/C=C/C(=O)Nc2ccc(N3CCOCC3)cc2)c1OC	0%	4	nt	nt	-5.1
CC(=O)c1c(C)oc2ccc(NS(=O)(=O)c3ccc(C(=O)O)cc3)cc12	nt	-3	nt	nt	-7.6
COc1ccc(-c2nc(CN3CCN(Cc4ccccc4)CC3)c(C)o2)cc1	nt	-6	nt	nt	0.7
CCOC(=O)c1c(C)sc2c1N(C(=O)CCl)c1cc(Cl)ccc1S2	24%	95	-34	-1	55*
O=C(Nc1ccncc1)C1CCN(S(=O)(=O)c2ccccc2C(F)(F)F)CC1	nt	-10	nt	nt	6.4
Cc1cccc(Cn2c(=O)c3c(nc4n3CCCN4Cc3ccccc3)n(C)c2=O)c1	22%	2	-3	-21	7.0
CCOc1ccc(N(CC(=O)Nc2ccc(C)cc2)S(=O)(=O)c2c(C)[nH]c(=O)[nH]c2=O)cc1	7%	-6	nt	nt	nt
O=C(Nc1ccccc1)[C@@H]1CC=C[C@@H]2CCN(C3CCCCC3)C(=O)[C@@H]21	-2%	-11	nt	nt	3.4
CCOc1nc(C#N)nc(N2CCCCC2)n1	nt	nt	5	-29	14
CC(C)c1nnc(NC(=O)CCC(=O)NCc2ccccc2Cl)s1	nt	0	nt	nt	-0.2
CC(=O)NCCc1csc(-c2ccccc2)n1	-3%	1	-2	1	1.5
CC(C(=O)NC1C(=O)N2C(C(=O)O)=C(CSc3nnnn3C)CSC12)n1cc(Cl)cn1 (stereo not given)	-5%	18	-3	nt	-0.6
Cc1ccc(C)n1-c1ccc(C(=O)N/N=C/c2ccncc2)cc1	10%	-2	-7	nt	nt
Nc1nn2c(-c3ccccc3)cc(=O)[nH]c2c1N=Nc1ccc(O)cc1	5%	43	6	nt	52*
CCOC(=O)N1CCN(C(=O)c2csc3c2CCCCC3)CC1	-2%	3	3	-13	4.8
CC(C)N(C(=O)Cc1ccccc1[N+](=O)[O-])C(C)C	4%	5	-3	nt	-0.6
Cc1cc(NC(=O)CSc2n[nH]c(-c3cccs3)n2)no1	3%	-1	11	5	-2.4
N#C/C(=C(/O)c1cc2ccccc2o1)c1nc2ccccc2s1	-8%	2	nt	nt	-25
Cc1ccc(NC(=S)NCc2ccccn2)cc1	-2%	-7	1	-30	1.5
Continuation.
SMILES	Mtb H37Rv	Mtb bLac sens	Arbovirus anti	YopH PTP inh	RecA splice inh	others
COCc1nc2sc3c(c2c(=O)[nH]1)CCCC3	-8%	-2	-1	-24	-0.3
CC(C)c1ccc(OCc2ccc(C(=O)N(C)C)o2)cc1	nt	4	nt	nt	2.3
CCOc1ccc(S(=O)(=O)N2CCC(C(=O)NCc3ccncc3)CC2)cc1	nt	-6	nt	nt	0.7
CCCCc1nnc(NC(=O)CSc2nc(C)cc(=O)[nH]2)s1	-4%	2	4	-30	-2.0
COCCNC(=O)Cn1ncc2ccsc2c1=O	4%	7	4	-48	0.0	Arbovirus anti repeat=8
Cc1ccccc1C(=O)Nc1c(C(=O)N2CCCC2)cnn1-c1ccccc1	-14%	-4	0	-6	-0.5
CCC(c1n[nH]c(=S)n1-c1ccccc1)N(C)C (stereo not given)	3%	3	1	3	-1.2
O=C(NCCCNC1CCCCC1)c1ccc(/C=N/O)nc1	5%	-1	6	4	-1.3
O=C(NC1CCN(C(=O)N2c3ccccc3Sc3ccccc32)CC1)c1ccccc1Cl	10%	3	-27	-43	13
COc1ccc(-c2nnn(CC(=O)N(Cc3cccs3)C(C)C(=O)NC3CCCC3)n2)cc1OC (stereo not given)	0%	1	-9	-27	-2.4
O=C(CSc1nnc(-c2ccc(Cl)cc2)n1Cc1ccco1)Nc1ccc2c(c1)OCCO2	-1%	-7	6	-24	2.3
CCNC(=S)N1CCN(Cc2ccc3c(c2)OCO3)CC1	-10%	-2	-1	nt	-2.2
CCCCCCCCc1nc(SC(C)C(=O)O)n[nH]1 (stereo not given)	-3%	0	9	nt	0.6
O=C(C1=C[C@@H](C2CC2)C[C@@H](OCCCCO)O1)N1CCN(Cc2ccc3c(c2)OCO3)CC1	-10%	-4	-2	nt	-0.8
Cc1[nH]n(-c2ccc([N+](=O)[O-])cc2)c(=O)c1/C=N/N1CCOCC1	-9%	0	-6	nt	-2.1
COC(=O)c1sccc1NS(=O)(=O)c1ccccc1	nt	-1	nt	nt	-3.9
CC(C)(C)c1csc(NNC(=O)c2ccc(Cl)cc2)n1	16%	92	nt	nt	2.8
CCN(C(=O)c1cc(Cl)ccc1Cl)C1CCS(=O)(=O)C1 (stereo not given)	nt	-12	nt	nt	-2.0
CCOC(=O)c1c(NC(C)=O)sc2c(OC)c(Br)ccc12	-2%	2	-21	-23	-0.5
CN(NC(=O)C(C)(C)C)c1nc(-c2ccccc2)nnc1C(F)(F)F	-4%	-8	-4	-2	-1.0
CCOc1ccc(C2C(C#N)=C(N)Oc3cc(C)n(CCN(C)C)c(=O)c32)cc1OCC (stereo not given)	-1%	5	0	-1	-1.3
CN(CC(O)Cn1cnc2c1c(=O)n(C)c(=O)n2C)c1ccccc1 (stereo not given)	-3%	-1	8	nt	nt
Cc1cc(O)ccc1N=Cc1c(C(F)(F)F)[nH][nH]c1=O	2%	2	-17	nt	-5.6
Cc1cc(NC(=O)CN2CCN(c3cccc(Cl)c3)CC2)no1	2%	2	2	nt	1.2
Nc1nc(N2CCN(c3ccc(F)cc3)CC2)n[nH]1	2%	0	9	nt	-4.5
CC(C)OC(=O)C(C#N)c1nc2ccccc2nc1N1CCCC1 (stereo not given)	6%	20	9	-14	-4.8
CC(Sc1nc2ccccc2c(=O)[nH]1)C(=O)O (stereo not given)	-7%	-4	0	-39	-1.2
CNC(=O)c1ccccc1S(=O)(=O)c1ccccc1C#N	-1%	-12	0	-54	-1.5
COc1ccc(C(=O)NC2CC2)cc1OC1CCN(Cc2ccc(SC)cc2)CC1	nt	0	nt	nt	3.2
CC1CCN(S(=O)(=O)c2cc(Br)cc(C(=O)NC3=NCCS3)c2)CC1	2%	1	7	11	10
COc1ccc(/C=N/n2c(-c3cc(C)[nH]n3)n[nH]c2=S)cc1OC	1%	-1	nt	nt	-0.6
CCOC(=O)C1=NNC(C(=O)c2ccc(Cl)cc2)C1c1ccc(OC)cc1 (stereo not given)	15%	50	1	nt	-0.5
CCOC(=O)C1CCCN(C(=O)CCCn2nnnc2CN2CCC(C)CC2)C1 (stereo not given)	nt	-3	nt	nt	-1.6
Cn1cc([C@@H]2C[C@H]3CN(Cc4cccc(Cl)c4)C(=O)[C@]34CCCN24)c2ccccc21	1%	-13	3	nt	8.4
CCC(C)C(NC(=O)C(CC(C)C)NC(=O)C(CO)NC(=O)C1CCC(=O)N1)C(=O)OC (stereo not given)	-28%	4	3	nt	0.0
O=C1NC2(CCCCC2)C(=O)N1c1ccc(Cl)cc1	nt	0	nt	nt	-0.4
COc1ccccc1OCC(O)CN1CCN(CC(=O)Nc2c(C)cccc2C)CC1 (stereo not given)	-8%	4&-1	nt	nt	3.4

A portion of the library. The share of hits here may be higher or lower than overall.
